Compound activity as filed in PubChem.
Ecoli rRNA inh = inhibitors of bacterial rRNA selective over humanized ribosomes | GFP signal change (wild-type ribosome), % (concentration not given with the values) | 350,000 tested, 1.6% active | E. coli WT GFP vs humanized-ribosome RFP mutants, fluorescence, 24 h; active compounds read low; DMSO median 0, no signal -100;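 active = significant combined selectivity score with lowered wild-type GFP, culture density cut under 30%, mutant RFP and density less affected; inactive = any of these conditions unmet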; note: one replicate is shown; some compounds called inactive have numbers as strong as hits
Ecoli rRNA inh OD600 = second read-out of Ecoli rRNA inh, no call of its own (marks repeat the call); OD600 change, %; measured here: OD600 growth;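 optical density of the mix in the first replicate; 0 = DMSO median and -100 = no signal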
Ecoli rRNA inh RFP = also measured in Ecoli rRNA inh; calls as there; RFP signal change, %; measured here: RFP humanized mutant strains;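 first replicate; 0 = DMSO median and -100 = no signal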
* hit, by the source's call; & = joins results of further samples. An excerpt (hit frequency here may not be typical).

molecule | Ecoli rRNA inh | Ecoli rRNA inh OD600 | Ecoli rRNA inh RFP
O=C(C(=O)N1CCN(S(=O)(=O)c2cccc3ccccc23)CC1)c1cccc(C(F)(F)F)c1 | 9.4 | 6.5 | 1.1
C[C@H]1CN([C@@H](C)CO)C(=O)c2cc(NC(=O)Nc3ccccc3)ccc2O[C@H]1CN(C)CC1CCCCC1 | 4.5 | -5.0 | -4.2
CC(C)NC(=O)N(C)C[C@H]1Oc2ccc(NC(=O)Nc3ccc(C(F)(F)F)cc3)cc2C(=O)N([C@@H](C)CO)C[C@@H]1C | 4.8 | 4.0 | -1.2
N#C[C@H]1[C@@H](c2ccccc2-c2ccccc2F)[C@@H](CO)N1C(=O)C1CCOCC1 | 1.8 | 1.1 | 0.8
CCCNC(=O)N1C[C@H]2[C@@H](c3ccccc31)[C@H](CO)N2Cc1ccccc1F | 3.1 | 6.5 | -5.0
CC(C)NC(=O)N(C)C[C@@H]1Oc2ccc(NC(=O)c3ccncc3)cc2C(=O)N([C@@H](C)CO)C[C@H]1C | 1.8 | -1.1 | 0.9
COC(=O)C[C@H]1C=C[C@H](NC(=O)Nc2ccc(C(F)(F)F)cc2)[C@@H](CO)O1 | -15.9 | -15.9 | 2.2
COc1cccc(S(=O)(=O)N[C@@H]2CC[C@@H](CC(=O)NCc3ccccc3)O[C@@H]2CO)c1 | 1.5 | 6.3 | 1.9
COc1ccc(NC(=O)Nc2ccc3c(c2)C(=O)N([C@H](C)CO)C[C@H](C)[C@@H](CN(C)S(=O)(=O)c2ccc(Cl)cc2)O3)cc1 | 0.7 | 1.2 | 3.6
COc1ccc(S(=O)(=O)N(C)C[C@H]2Oc3ccc(NS(=O)(=O)c4ccc(F)cc4)cc3CC(=O)N([C@@H](C)CO)C[C@H]2C)cc1 | 0.5 | -8.8 | 1.1
C[C@@H]1CCCCO[C@@H](CN(C)S(=O)(=O)c2cn(C)cn2)[C@H](C)CN([C@@H](C)CO)C(=O)c2cc(NS(=O)(=O)c3ccc(Cl)cc3)ccc2O1 | -4.0 | -1.1 | -2.8
C[C@@H]1CN([C@@H](C)CO)C(=O)c2cc(C3=CCCCC3)cnc2O[C@@H]1CN(C)C(=O)Cc1ccccc1 | -0.9 | -1.5 | -1.9
COc1ccc2c3c([nH]c2c1)[C@H](CO)N(C(=O)CN(C)C)CC31CCN(Cc2ccccc2)CC1 | 2.9 | 10.6 | -1.8
COCC(=O)N1CC(=O)N2[C@H](CO)[C@H](c3ccc(-c4ccccc4F)cc3)[C@@H]2C1 | 3.8 | 22.2 | -1.7
O=C(NCC[C@H]1CC[C@@H](NS(=O)(=O)c2ccccc2)[C@H](CO)O1)c1ccc2c(c1)OCO2 | 1.1 | -3.0 | -1.6
O=C(N[C@H]1CC[C@H](CCNS(=O)(=O)c2cccc(Cl)c2)O[C@@H]1CO)c1ccccc1 | -2.8 | -3.4 | -3.1
C[C@@H]1CN([C@H](C)CO)C(=O)c2cccc(NC(=O)NC3CCCCC3)c2O[C@@H]1CN(C)S(=O)(=O)c1cccs1 | -2.9 | -3.4 | -0.1
CN1C(=O)c2cc(NC(=O)c3cccc(Cl)c3)ccc2OC[C@@H]2O[C@@H](CC(=O)NC3CCCCC3)CC[C@H]21 | -6.8 | -3.6 | 8.6
COc1ccc(NC(=O)N(C)C[C@@H]2Oc3ccc(NC(=O)NC4CCCCC4)cc3C(=O)N([C@@H](C)CO)C[C@@H]2C)cc1 | -2.0 | -4.0 | -0.8
C[C@H](CO)N1C[C@H](C)[C@@H](CN(C)C(=O)NC2CCCCC2)Oc2ccc(NC(=O)C3CCCCC3)cc2CC1=O | 0.6 | -3.5 | -2.1

Next part; it opens with the two that closed the last part.
molecule | Ecoli rRNA inh | Ecoli rRNA inh OD600 | Ecoli rRNA inh RFP
COc1ccc(NC(=O)N(C)C[C@@H]2Oc3ccc(NC(=O)NC4CCCCC4)cc3C(=O)N([C@@H](C)CO)C[C@@H]2C)cc1 | -2.0 | -4.0 | -0.8
C[C@H](CO)N1C[C@H](C)[C@@H](CN(C)C(=O)NC2CCCCC2)Oc2ccc(NC(=O)C3CCCCC3)cc2CC1=O | 0.6 | -3.5 | -2.1
CCCNC(=O)N1CCC2(CC1)CN(S(C)(=O)=O)[C@H](CO)c1c2c2ccc(OC)cc2n1C | -2.1 | 10.3 | -0.7
CCCN1C[C@@H](C)[C@@H](OC)CN(C)C(=O)c2cc(NC(=O)Nc3c(C)noc3C)ccc2OC[C@@H]1C | -2.9 | 5.2 | -1.9
O=S(=O)(Cc1ccccc1)NCC[C@H]1CC[C@@H](NS(=O)(=O)c2ccc(F)cc2)[C@@H](CO)O1 | 3.2 | -5.1 | 0.4
CCOC(=O)CC1(CCc2ccccc2)Oc2ccccc2O1 | -3.0 | -6.5 | -1.2
CC1(C(=O)NS(=O)(=O)c2ccc(Cl)cc2)CCN1C(=O)CCc1ccccc1 (stereo unspecified) | -0.7 | 10.1 | -2.4
CCN(CC(=O)Nc1c(F)cccc1F)C(=O)CCCN1C(=O)c2ccccc2C1=O | 5.7 | 2.9 | 2.6
Cc1noc(C)c1NC(=O)N(C)C[C@@H]1OCCCC[C@@H](C)Oc2ccc(NS(=O)(=O)c3ccc(Cl)cc3)cc2C(=O)N([C@H](C)CO)C[C@H]1C | 0.5 | 0.0 | 1.1
O=C(c1ccccn1)N1CC(=O)N2[C@H](CO)[C@H](c3ccc(C#CC4CCCC4)cc3)[C@H]2C1 | 1.2 | -9.1 | -2.6
O=C(NCC[C@H]1CC[C@@H](NC(=O)c2cnccn2)[C@H](CO)O1)Nc1ccc(F)cc1 | 3.9 | 3.1 | -0.4
Cc1cccc(N2CCN(C(=O)c3ccc4c(=O)[nH]c5c(C(=O)NC6CCCC6)sc(=S)n5c4c3)CC2)c1C | 24.2 | 21.9 | 1.8
O=S(=O)(c1cccc(Cl)c1)N1[C@@H]2CNC[C@H]1C2c1ccc(-c2cccnc2)cc1 (stereo partly specified) | -11.2&-4.4 | 8.9&15.1 | -6.6&-0.6
CO[C@H](CN(C)C(=O)C1CC1)[C@H](C)CN(C(=O)Nc1ccc(C(F)(F)F)cc1)[C@H](C)CO | -61.2 | -76.0 | -12.9
Cc1ccccc1CN1[C@@H](CC(C)C)COc2cc(Br)ccc2S1(=O)=O | 3.5 | 11.9 | -3.7
C[C@@H]1CN([C@@H](C)CO)C(=O)c2cc(C#Cc3ccccn3)cnc2O[C@H]1CN(C)C(=O)CCN1CCCCC1 | 2.9 | 4.5 | 1.4
C[C@@H]1CN([C@H](C)CO)S(=O)(=O)c2ccc(-c3cccc(C#N)c3)cc2O[C@H]1CN(C)C(=O)c1cccnc1 | 1.2 | 0.1 | -0.7
O=C(Nc1cccc(OC(F)(F)F)c1)C1Cc2c(-c3ccccc3Oc3ccccc3)ccnc2O1 (stereo unspecified) | 6.0 | 24.7 | 6.7
CC1=CC(C)(C(Cl)(Cl)Cl)C(C)=CC1=NO (stereo unspecified) | -56.6 | -80.0 | -18.9
CO[C@H]1CN(C)C(=O)c2cc(NS(=O)(=O)c3ccc(C)cc3)ccc2OC[C@@H](C)N(C(=O)NC(C)C)C[C@H]1C | -0.1 | 1.4 | 0.3
COc1ccc(NC(=O)Nc2cccc3c2O[C@H](CN(C)S(=O)(=O)c2cn(C)cn2)[C@H](C)CN([C@H](C)CO)C3=O)cc1 | -3.7 | -1.9 | -3.0
C[C@@H]1CCCCO[C@H](CN(C)C(=O)Nc2cccc3ccccc23)[C@@H](C)CN([C@@H](C)CO)C(=O)c2cc(NC(=O)C3CCCCC3)ccc2O1 | 0.6 | 1.4 | 4.2

A section of the results above, for reference:
molecule | Ecoli rRNA inh | Ecoli rRNA inh OD600 | Ecoli rRNA inh RFP
CO[C@H]1CN(C)C(=O)c2cc(NS(=O)(=O)c3ccc(C)cc3)ccc2OC[C@@H](C)N(C(=O)NC(C)C)C[C@H]1C | -0.1 | 1.4 | 0.3
COc1ccc(NC(=O)Nc2cccc3c2O[C@H](CN(C)S(=O)(=O)c2cn(C)cn2)[C@H](C)CN([C@H](C)CO)C3=O)cc1 | -3.7 | -1.9 | -3.0
C[C@@H]1CCCCO[C@H](CN(C)C(=O)Nc2cccc3ccccc23)[C@@H](C)CN([C@@H](C)CO)C(=O)c2cc(NC(=O)C3CCCCC3)ccc2O1 | 0.6 | 1.4 | 4.2

Next part:
molecule | Ecoli rRNA inh | Ecoli rRNA inh OD600 | Ecoli rRNA inh RFP
Cn1c(NCc2ccccc2)nc2cc(-c3cccc(C(F)(F)F)c3)sc2c1=O | 4.8 | 1.4 | -3.4
CO[C@H]1CN(C)C(=O)c2ccc(NC(=O)Nc3c(C)noc3C)cc2OC[C@H](C)NC[C@@H]1C | 2.5 | 2.8 | -2.2
COc1ccc(NC(=O)N(C)C[C@@H]2Oc3c(NC(=O)C4CCOCC4)cccc3C(=O)N([C@@H](C)CO)C[C@@H]2C)cc1 | 3.8 | 3.7 | -1.3
C[C@@H]1CN([C@@H](C)CO)C(=O)Cc2cc(NS(=O)(=O)c3cccs3)ccc2O[C@H]1CN(C)C(=O)Nc1ccccc1 | 2.9 | 3.9 | -0.2
O=C(Nc1c(Cl)c(C2CC2)nn1-c1ccccc1)C(Cl)(Cl)Cl | -47.7 | -67.3 | -11.7
COc1ccc(NC(=O)C2Cc3c(-c4cccc(NC(C)=O)c4)ccnc3O2)cc1 (stereo unspecified) | -1.9 | 0.4 | 0.4
Cc1noc(C)c1NC(=O)Nc1ccc2c(c1)C(=O)N([C@@H](C)CO)C[C@H](C)[C@@H](CN(C)C(=O)Nc1ccc(F)cc1)OCCCC[C@@H](C)O2 | -2.6 | 0.0 | -1.8
CC(=O)N(C)C[C@@H]1Oc2ncc(C#Cc3ccc(F)cc3)cc2C(=O)N([C@@H](C)CO)C[C@H]1C | 4.8&5.2 | 2.2&-0.1 | -0.3&0.2
CO[C@@H]1CN(C)C(=O)c2cc(NC(=O)C3CCCC3)ccc2OC[C@@H](C)N(C(=O)c2ccccc2)C[C@H]1C | -1.6 | 3.4 | -5.1
O=C(N[C@@H]1CC[C@H](CCn2cc(C3CC3)nn2)O[C@H]1CO)c1cccnc1 | -0.3 | -2.6 | -3.3
Cc1ccc(S(=O)(=O)N[C@@H]2CC[C@H](CCNC(=O)CN3CCOCC3)O[C@H]2CO)cc1 | 3.3 | 4.4 | -2.6
C[C@H](CO)N1C[C@H](C)[C@H](CN(C)Cc2ccc(Cl)c(Cl)c2)OCCCC[C@H](C)Oc2ccc(NS(C)(=O)=O)cc2C1=O | -0.7 | -17.4 | 7.0
C[C@@H]1CCCCO[C@H](CN(C)C(=O)C2CCCCC2)[C@H](C)CN([C@H](C)CO)C(=O)c2cc(NS(=O)(=O)c3ccc(Cl)cc3)ccc2O1 | 3.4 | 16.1 | 3.8
CCCNC(=O)C[C@H]1C[C@@H]2c3cc(NS(=O)(=O)c4cccc(OC)c4)ccc3O[C@@H]2[C@H](CO)O1 | -2.6 | 1.0 | -0.9
Cc1noc(C)c1S(=O)(=O)Nc1ccc2c(c1)C(=O)N([C@H](C)CO)C[C@@H](C)[C@H](CN(C)S(=O)(=O)c1ccc(F)cc1)OCCCC[C@@H](C)O2 | -1.3 | -8.2 | 3.0
CNC(=O)C[C@H]1CC[C@@H]2[C@@H](COc3ccc(NC(=O)Nc4cccc(C)c4)cc3C(=O)N2C)O1 | 2.3 | -6.4 | 1.4
CCCNC(=O)C1(C)CCN(C(=O)c2ccc(OC)cc2OC)C1 (stereo unspecified) | 10.5 | 25.6 | -0.1
O=C(C[C@H]1C[C@@H]2c3cc(NC(=O)CC4CC4)ccc3O[C@@H]2[C@@H](CO)O1)NCc1ccccc1F | -2.8 | 1.1 | -0.4
COC(=O)C1=CN(c2ccc(C(C)(C)C)cc2)C(N)=C(C#N)C1c1ccc(OC)cc1 (stereo unspecified) | 2.6 | 6.3 | -1.6
C[C@@H]1CN([C@H](C)CO)C(=O)c2cc(NS(C)(=O)=O)ccc2O[C@@H]1CN(C)S(=O)(=O)c1cccs1 | 0.7 | 0.4 | -1.7
CC(=O)c1c(C)[nH]c(C(=O)OCC(=O)NCc2ccccc2)c1C | 0.8 | -2.3 | 3.2
C[C@H](CO)N1C[C@H](C)[C@@H](CN(C)C(=O)C2CC2)Oc2cc(-c3ccncc3)ccc2S1(=O)=O | -5.2 | -1.0 | -3.2
Cc1noc(C)c1S(=O)(=O)Nc1ccc2c(c1)C(=O)N([C@@H](C)CO)C[C@@H](C)[C@H](CN(C)S(=O)(=O)c1cccs1)O2 | 0.3 | 1.0 | -0.8
CO[C@@H]1CN(C)C(=O)c2ccc(NC(=O)c3ccccc3)cc2OC[C@@H](C)N(C(=O)C2CC2)C[C@H]1C | -1.2 | -3.2 | -1.3
C[C@@H]1CN([C@H](C)CO)C(=O)c2cccc(NS(=O)(=O)c3cn(C)cn3)c2O[C@@H]1CN(C)S(=O)(=O)c1cccs1 | -1.5 | 9.6 | 1.1
CCNC(=O)C[C@@H]1CC[C@H]2[C@@H](COC[C@H](O)CN2Cc2ccc(Cl)c(Cl)c2)O1 | -6.1 | -6.7 | -3.8
O=C(NCc1ccccc1Cl)[C@@H]1[C@@H](CO)[C@@H]2Cn3c(cccc3=O)[C@@H]2N1C(=O)C1CCC1 | 1.4 | 1.8 | -0.1
C[C@@H]1CN([C@H](C)CO)C(=O)c2cccc(NC(=O)Nc3ccc4c(c3)OCO4)c2O[C@@H]1CN(C)C(=O)Nc1ccc(C(F)(F)F)cc1 | -6.4 | -13.6 | 0.8
